High-throughput results as filed in PubChem.
miR-21 FLuc = miR-21 reporter, rising signal. Potency, µM (titrated, usually from 38.3 µM), inactives show top-dose reporter change, positive = more light. HeLa miR-21 FLuc reporter, luciferase, 48 h. 340,000 tested, under 10 active; active = well fitted rising curve with a large enough effect; inconclusive = small, poorly fitted or top-dose-only effect; inactive = no such curve, though single readings can be large or run the other way;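 also: % of control where 0% means no effect; miR-21 action dims this reporter so a rising signal means less miR-21 action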
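Using DMEM plus 10% FBS, HeLa miR-21-FLuc cells are incubated with test compounds (final up to about 40uM) for 48 hours; firefly luciferase signal is then imaged following reagent-mediated lysis.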
Rango complex inh = Rango-importin beta binding inhibition | Potency, µM (highest dose often 92.2 µM), without a hit: at the top dose inhibition of complex formation | 340,000 compounds, 0.031% hits | Rango CFP/YFP FRET sensor + importin beta, 45 min | AID 540263 | Q14974; active = rising FRET ratio curve, often small or poorly fitted; inconclusive = mostly compound fluorescence or quenching in the first reads; inactive = flat curves in all reads;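 also: potency is read from the fitted curve at half-maximal effect; 0% = DMSO wells and 100% = buffer wells lacking importin beta; nearly all actives have a fitted effect of over 15% in size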
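FRET biosensor (snurportin 1 IBB flanked by EYFP and cerulean), 50 nM, with compound 5 min, then 0.125 microM importin beta in PBS, 1 mM DTT, 0.02% Tween-20, 0.1% BSA. CFP/YFP ratio read after 45 min at room temperature; pre-read flags interference.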
Rango dissoc inh = prevents RanGTP from dissociating the Rango-importin beta complex | O95149+P62826 | Biochemical FRET Rango-importin beta, RanGTP-induced dissociation | Potency, µM (highest dose often 46.1 µM), without a hit: top-dose activity change, negative = inhibition | 340,000 compounds, 0.071% hits; active means falling FRET ratio curve, often poorly fitted, with flat reads before Ran was added; inconclusive means other falling curves, or compound fluorescence or quenching; inactive means flat or rising ratio curve;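 also: potency is read from the fitted curve at half-maximal effect; % of control where 0% means no effect; nearly all actives have a fitted effect of over 45% in size; -100% = wells without RanGTP and RCC1; the record marks most hits as doubtful in a second field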
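FRET read at 45 min, room temperature: inhibitors block the CFP/YFP signal rise when RanGTP (0.6 uM Ran, 2 mM GTP, 0.2 uM RCC1) frees Rango (0.1 uM) from importin beta (0.25 uM). Pre-read after 5 min compound exposure flags interference.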
GLA inh pH 4.5 = inhibitors of human alpha-galactosidase A at pH 4.5 | P06280 | purified enzyme, 4-MU-alpha-Gal fluorescence, pH 4.5 | activity change, negative = inhibition, % at 105 µM | 230,000 tested, under 10 active; inconclusive = small, poorly fitted or top-dose-only inhibition, or a rising curve; inactive = flat fitted curve, though single readings scatter; no compound was filed as active;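 also: 0% = full activity with enzyme and -100% = basal without enzyme; dose as in the result columns while the protocol names 77 µM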
Target sequence (P06280 whole entry, looked up): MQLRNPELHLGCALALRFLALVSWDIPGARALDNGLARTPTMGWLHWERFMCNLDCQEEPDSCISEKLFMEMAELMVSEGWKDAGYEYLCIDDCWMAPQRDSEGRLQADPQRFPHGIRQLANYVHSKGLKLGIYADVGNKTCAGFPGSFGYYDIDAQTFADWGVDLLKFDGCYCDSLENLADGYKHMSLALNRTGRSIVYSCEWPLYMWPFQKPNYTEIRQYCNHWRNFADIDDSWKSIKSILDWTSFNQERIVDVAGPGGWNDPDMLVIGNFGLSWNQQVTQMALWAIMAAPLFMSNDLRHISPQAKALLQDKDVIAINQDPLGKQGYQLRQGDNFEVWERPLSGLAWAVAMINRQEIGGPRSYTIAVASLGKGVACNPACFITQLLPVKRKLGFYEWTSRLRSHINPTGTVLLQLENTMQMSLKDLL
* marks the source's active call; other numbers are inactive results; ? = inconclusive; / = no result given; [ ] = dose if it differs, or a comment. Some of the compounds tested (hit frequency here may not be typical).

SMILES	miR-21 FLuc	Rango complex inh	Rango dissoc inh	GLA inh pH 4.5
O=C(/C=C/c1cccs1)Nc1ccc(Br)cn1	-18%	3.6%	8%	-8
CC(=O)Nc1ccc(CN2CCN(CCc3ccccc3)C(CCO)C2)cc1 (centres undefined)	-2%	2.0%	7%	-9
COc1ccc(Cn2nnnc2C(c2cc3cc(C)cc(C)c3[nH]c2=O)N2CCOCC2)cc1 (centres undefined)	1%	0.6%	9%	0
O=C(/C=C/c1ccncc1)c1ccc(NC(=O)c2ccccc2F)cc1	?	?	-7%	0
COc1ccc(C(=O)N2CCC(C(=O)Nc3ccc(OC)c(OC)c3)CC2)cc1	-2%	-2.1%	11%	7
Cc1ccc(NC(=O)CSc2nnc(-c3ccncc3)n2N)cc1C	2%	0.3%	9%	-2
COC(=O)[C@@H](Cc1c[nH]c2ccccc12)NCc1ccc(B(O)O)cc1	/	5.4%	1%	/
CCCCn1c(N)c(N(CCC(C)C)C(=O)c2ccc3c(c2)OCCO3)c(=O)[nH]c1=O	/	-2.0%	14%	/
O=C1C=CC(=Nc2ccc3c(c2)C(=O)c2ccccc2-3)O1	/	0.4%	-4%	/
Cc1cc(-c2ccccc2)nc2oc3c(c12)NC(=O)CN(c1ccccc1)C3=O	-15%	4.0%	1%	-8
CN(Cc1ccccc1)C(=O)c1cccc(NC(=O)c2ccco2)c1	-1%	-0.7%	-3%	-9
COc1ccc2c(c1)c(C(C)=O)c(C)n2-c1ccc(C(C)=O)cc1	4%	0.4%	-20%	/
CCCCCCC1(C)NC(=O)N(C(C)C(=O)Nc2ccc(N3CCOCC3)cc2)C1=O (centres undefined)	/	-1.6%	-18%	/
Cc1ccc(NS(=O)(=O)c2cc(C(=O)N(C)C3CCN(C)CC3)ccc2Cl)cc1Cl	/	0.9%	15%	/
CCOc1ccc(S(=O)(=O)N(CC(=O)NCc2ccncc2)c2ccc(C)cc2)cc1	21%	0.6%	3%	/
O=C(c1ccc(COc2c(F)c(F)c(F)c(F)c2F)o1)N1CCN(Cc2ccc3c(c2)OCO3)CC1	-16%	5.3%	-1%	-5
Cc1nnc(SCC(=O)NC2CCCc3c2cnn3-c2ccc(F)cc2F)o1 (centres undefined)	-14%	0.4%	-9%	/
COCCNC(=O)C(c1ccc(C)o1)N(C(=O)Cn1nnc2ccccc21)c1ccccc1 (centres undefined)	-6%	2.3%	7%	-15
COc1ccc(OC)c(/C=N/NC(=O)CNC(=O)c2ccc(S(=O)(=O)N3CCCC3)cc2)c1	0%	-0.5%	38%	-1
CCn1c(COc2ccc(C)cc2)nnc1SCc1nc2ccccc2[nH]1	15%	0.7%	4%	-6
CCOc1ccc(/C=N/N2C(C)CCCC2C)cc1 (centres undefined)	-11%	1.4%	9%	/
O=C(CNc1ccccc1)NN=C1CCCC1	-2%	-1.3%	2%	3
CCC(C)c1ccccc1OCCCCN1CCCC1 (centres undefined)	-1%	-2.6%	-10%	-6
O=C(CSc1nnc2ccccn12)c1ccccc1	-59%	-0.9%	-3%	8
CCOc1ccc2nc(N/C(N)=N/C(=S)Nc3cccc(OC)c3)nc(C)c2c1	-4%	-2.3%	-21%	4
O=C(COC(=O)COc1ccccc1Cc1ccccc1)Nc1cccnc1Cl	-2%	3.0%	1%	4
Cc1ccc(C)c(NC(=S)c2nc3ccccc3s2)c1	-25%	-1.9%	4%	-1
N#Cc1c(-c2ccccc2)nc(N2CCCCCC2)[nH]c1=O	-10%	0.4%	16%	-5
CC(NC(=O)C(=O)N/N=C/c1ccc(Cl)cc1)c1ccccc1 (centres undefined)	-2%	-1.2%	3%	4
Cc1ccccc1C(=O)NC1CCN(C(=O)Nc2ccccc2Cl)CC1	-1%	3.7%	-9%	3
O=C(N/N=C/c1cc2c(cc1[N+](=O)[O-])OCO2)c1ccccn1	/	-0.6%	13%	/
O=C(C[C@@H]1C/C=C\C[C@H](NC(=O)OCC2c3ccccc3-c3ccccc32)C(=O)OC[C@H]2CCCN2C1=O)N[C@H](CO)Cc1ccccc1	/	-0.6%	6%	/
Cc1cc(=O)n(C(NC(=O)c2ccccc2)C(=O)c2ccccc2)cn1 (centres undefined)	-30%	-0.3%	6%	-7
CCn1ccnc1CN1CCC(CO)(CCOc2ccccc2)CC1	-2%	-0.8%	10%	4
CCCn1c(N)c(C(=O)CSc2nnc(Cc3ccccc3)o2)c(=O)n(C)c1=O	16%	-1.3%	-11%	0
CC(C)CC(=O)Nc1nc2ccc(S(C)(=O)=O)cc2s1	-2%	-5.5%	0%	-3
CCN(C(=O)c1ccc(S(=O)(=O)N2CCOCC2)cc1)C1CCS(=O)(=O)C1 (centres undefined)	/	4.9%	13%	/
N#CCc1ccc(OC(=O)c2cccnc2)cc1	2%	-2.5%	-15%	-10
O=c1[nH]c(CSc2ncc(-c3ccc(F)cc3)n2Cc2ccco2)nc2ccccc12	18%	0.2%	1%	-1
O=C(CCC1CCCN(c2ncccn2)C1)NCc1ccc(F)c(F)c1 (centres undefined)	-2%	4.3%	8%	-2
CC(=O)OC(C)(C)C#CCN1CCCC1	1%	-1.1%	0%	-10
O=C(N/N=C/c1ccc2c(c1)OCO2)C1COc2ccccc2O1 (centres undefined)	0%	-2.1%	8%	-4
COC1CC(C)NC(=S)N1 (centres undefined)	1%	-1.4%	3%	3
O=C(c1cnccn1)N1CCN(c2ccccc2)CC1	-6%	5.5%	-6%	-9
CCOc1ccc(N(CC(=O)OC)S(=O)(=O)c2c(C)noc2C)cc1	-2%	6.7%	-16%	5
O=C(Nc1ccc(S(=O)(=O)N2CCCCC2)cc1)C1CCN(C(=O)c2ccc(F)cc2)CC1	/	9.6%	-22%	/
COC(=O)C1=C(C)NC(=O)NC1c1ccc(N2CCC(c3ccccc3)=N2)cc1 (centres undefined)	-7%	?	?	20
CCOc1ccc(C(=O)NCC(=O)OCc2cc(C(C)=O)ccc2OC)cc1	-1%	-0.5%	0%	-9
CCC(=O)c1ccc(N2CCN(S(=O)(=O)c3ccccc3)CC2)c(F)c1	-1%	-0.9%	-10%	1
COc1ccc(C(=O)Nc2nc(C)c(C)s2)cc1OC	-41%	2.3%	-7%	7
CC(C)NC(=O)NC(=O)COC(=O)c1ccc([N+](=O)[O-])cc1Cl	0%	-1.2%	-12%	7
Cc1cccc(Oc2nc3ccccn3c(=O)c2/C=C(\C#N)C(=O)NC2CCS(=O)(=O)C2)c1C (centres undefined)	-3%	?	?	/
COc1ccc(NC(=O)C(=O)NCC2CCCN2S(=O)(=O)c2ccc(C)cc2)cc1 (centres undefined)	/	2.0%	-8%	/
O=C(c1ccco1)N1CCN(Cc2cccc(C(F)(F)F)c2)CC1	3%	3.2%	-8%	/
COc1ccc(OC)c(NC(=O)CSc2ccc(-c3cccnc3)nn2)c1	-9%	-1.2%	6%	/
Cc1ccc(C(=O)OCC(=O)c2c[nH]c3ccccc23)cc1	-50%	-6.7%	1%	1
COc1ccc(C2NC(=O)C(C)S2)cc1 (centres undefined)	-3%	-1.4%	19%	-18
C#CCSc1ncc(-c2ccccc2)cn1	-50%	1.5%	-13%	-1
O=C(c1ccc2ccccc2c1)C1CCCN(C(=O)c2noc3c2CCCC3)C1 (centres undefined)	1%	0.2%	-1%	-2
C[C@@H]1CN([C@H](C)CO)C(=O)Cc2cc(NC(=O)Nc3ccccc3)ccc2O[C@@H]1CN(C)C(=O)Nc1ccc2c(c1)OCO2	/	-5.4%	27%	/

The list goes on.
SMILES	miR-21 FLuc	Rango complex inh	Rango dissoc inh	GLA inh pH 4.5
CCCCCCCc1c(C#N)c(N)[nH]c(=S)c1C#N	-5%	-2.5%	-20%	-8
C=CCNC(=O)c1cccc2c1C(=O)c1ccc(N3CCCC3)cc1S2(=O)=O	/	?	?	/
CC1(C)CC(=O)C(c2c[nH]c3ccccc23)C(=O)C1	-6%	-2.1%	1%	6
COc1ccc(CN2C3CCCC2CC(NC(=O)/C=C/c2ccccc2)C3)cc1 (centres undefined)	-10%	3.9%	-7%	-4
CNc1ccccc1C(C)(C)c1ccn[nH]1	0%	?	-26%	5
O=C(OC1CCOC1=O)c1cc(-c2cccs2)nc2ccccc12 (centres undefined)	-2%	-11%	-14%	-20[21.1 µM]
COCCCN(C(=O)CCOc1ccc(C)cc1)c1c(N)n(Cc2ccccc2)c(=O)[nH]c1=O	/	2.2%	-15%	/
O=C(CC1OC(=O)c2ccccc21)Nc1cc(Cl)ccc1N1CCOCC1 (centres undefined)	/	2.5%	26%	/
CCOc1ccc(N(CC)C(=O)CCNC(=O)Cn2ccc3ccccc3c2=O)cc1	0%	-1.0%	-11%	0
Cc1cc(-n2c(C)cc(C(=O)CSc3nc4ccccc4c(=O)n3Cc3ccco3)c2C)no1	-7%	?	?	1
CCOc1ccccc1NC(=O)CCC(=O)Nc1ccc2nc(N3CCN(C)CC3)cc(C)c2c1	-9%	-4.1%	9%	0
O=C(c1cc(-c2ccccc2)on1)N1CCCCCC1	-73%	-0.5%	-14%	/
Cc1ccc(-c2nc(CS(=O)CC(=O)NCCN3CCCCCC3)c(C)o2)cc1 (centres undefined)	-5%	-0.7%	3%	/
COc1ccccc1N1CCN(C(=O)c2cc(-c3ccc(Br)cc3)on2)CC1	-2%	0.5%	-26%	-2
O=C(Nc1cc(S(=O)(=O)N2CCOCC2)ccc1O)c1ccco1	2%	-0.1%	3%	9

Reformatted with two lines to a compound: part of the list above.
Below each compound – miR-21 FLuc, Rango complex inh, Rango dissoc inh, GLA inh pH 4.5
C[C@@H]1CN([C@H](C)CO)C(=O)Cc2cc(NC(=O)Nc3ccccc3)ccc2O[C@@H]1CN(C)C(=O)Nc1ccc2c(c1)OCO2
    /, -5.4%, 27%, /
CCCCCCCc1c(C#N)c(N)[nH]c(=S)c1C#N
    -5%, -2.5%, -20%, -8
C=CCNC(=O)c1cccc2c1C(=O)c1ccc(N3CCCC3)cc1S2(=O)=O
    /, ?, ?, /
CC1(C)CC(=O)C(c2c[nH]c3ccccc23)C(=O)C1
    -6%, -2.1%, 1%, 6
COc1ccc(CN2C3CCCC2CC(NC(=O)/C=C/c2ccccc2)C3)cc1 (centres undefined)
    -10%, 3.9%, -7%, -4
CNc1ccccc1C(C)(C)c1ccn[nH]1
    0%, ?, -26%, 5
O=C(OC1CCOC1=O)c1cc(-c2cccs2)nc2ccccc12 (centres undefined)
    -2%, -11%, -14%, -20[21.1 µM]
COCCCN(C(=O)CCOc1ccc(C)cc1)c1c(N)n(Cc2ccccc2)c(=O)[nH]c1=O
    /, 2.2%, -15%, /
O=C(CC1OC(=O)c2ccccc21)Nc1cc(Cl)ccc1N1CCOCC1 (centres undefined)
    /, 2.5%, 26%, /
CCOc1ccc(N(CC)C(=O)CCNC(=O)Cn2ccc3ccccc3c2=O)cc1
    0%, -1.0%, -11%, 0
Cc1cc(-n2c(C)cc(C(=O)CSc3nc4ccccc4c(=O)n3Cc3ccco3)c2C)no1
    -7%, ?, ?, 1
CCOc1ccccc1NC(=O)CCC(=O)Nc1ccc2nc(N3CCN(C)CC3)cc(C)c2c1
    -9%, -4.1%, 9%, 0
O=C(c1cc(-c2ccccc2)on1)N1CCCCCC1
    -73%, -0.5%, -14%, /
Cc1ccc(-c2nc(CS(=O)CC(=O)NCCN3CCCCCC3)c(C)o2)cc1 (centres undefined)
    -5%, -0.7%, 3%, /
COc1ccccc1N1CCN(C(=O)c2cc(-c3ccc(Br)cc3)on2)CC1
    -2%, 0.5%, -26%, -2
O=C(Nc1cc(S(=O)(=O)N2CCOCC2)ccc1O)c1ccco1
    2%, -0.1%, 3%, 9

(cont.)
SMILES	miR-21 FLuc	Rango complex inh	Rango dissoc inh	GLA inh pH 4.5
Cc1ccc(CNc2ccc3c(c2)ncn3C)cc1	-61%	?	?	-6
CC(=O)NCCOc1c(C)cc(S(N)(=O)=O)cc1C	-6%	-0.2%	-12%	3
NC(=O)NC(=O)COC(=O)/C=C/c1cccc(Br)c1	0%	-0.9%	8%	2
NCCc1nnc(SCc2ccccc2)o1	-5%	2.3%	-19%	1
Cc1ccc(NC(=O)CCNS(=O)(=O)c2ccc(Br)cc2)cc1S(=O)(=O)N1CCOCC1	/	-0.2%	-10%	/
CCN(Cc1ccccc1)S(=O)(=O)c1ccc(F)cc1	0%	0.3%	-21%	/
